FGF22 binding = binders of human FGF22 protein, primary screen, FGF22 synaptogenesis inhibitor project, biophysical, thermal shift, single point | calls only at 9.99 µM | recombinant FGF22 thermal shift, SYPRO orange fluorescence; percent of sucrose octasulfate shift, DMSO zero | hit rate 1.5% among 340,000;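 active = melting point raised past a set limit in the mean and every replicate; inconclusive = no clear call; three in four hits are not shown here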
Target sequence (Q9HCT0 whole entry, looked up): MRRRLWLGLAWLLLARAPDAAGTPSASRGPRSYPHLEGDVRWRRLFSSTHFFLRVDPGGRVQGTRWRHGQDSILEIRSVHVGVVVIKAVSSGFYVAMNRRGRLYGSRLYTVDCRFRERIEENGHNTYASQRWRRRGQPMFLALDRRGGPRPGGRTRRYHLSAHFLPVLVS
Vif A3G = inhibitors of Vif binding to APOBEC3G peptide, primary screen, biochemical, TR-FRET, GST-Vif 1-94, biotin-A3G peptide, dose response retest (AID 1117319). TR-FRET GST-Vif / biotin-A3G peptide binding; higher % means a stronger effect; test concentration not given here; strong numbers were not always called active. inhibition, %; hits with a dose series show IC50 in µM. hit rate 0.57% among 260,000;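 active = above the screen mean plus three standard deviations and confirmed in dose response; inconclusive = results disagree or hit not tested in dose response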;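 note: Vif residues 1-94 fused to GST binding biotinylated APOBEC3G peptide 110-148; 0% = full assay without inhibitor and 100% = GST in place of GST-Vif; retest series ran down from 100 µM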
Ecoli rRNA inh = reduced GFP signal of wild-type E. coli, primary screen, bacterial rRNA inhibitor project, GFP/RFP fluorescence, OD600, single point. E. coli WT GFP vs humanized-ribosome RFP mutants, 24 h; active compounds read low; DMSO median 0, no signal -100. GFP signal change (wild-type ribosome), % (test concentration not listed). hit rate 1.6% among 350,000. AID 720706, 2013;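 active = significant combined selectivity score with lowered wild-type GFP, culture density cut under 30%, mutant RFP and density less affected; inactive = any of these conditions unmet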; note: one replicate is shown; some compounds called inactive have numbers as strong as hits
HNF4A DNA FP = change in binding of human HNF4A to DNA, primary screen, biochemical, fluorescence polarization, FITC-DNA. 1 h. Hepatocyte nuclear factor 4-alpha (Homo sapiens), P41235. activity change, % at 10 µM. hit rate 0.3% among 360,000; in the data active = activity change above about 30%, passing the limit was not always enough;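 note: controls were the assay level and a saturating level of protein; the project sought stronger binding though the title names inhibitors; some compounds called inactive have numbers as strong as hits; positive values seem to mean higher polarization but the record does not say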
Target sequence (P41235 whole entry, looked up): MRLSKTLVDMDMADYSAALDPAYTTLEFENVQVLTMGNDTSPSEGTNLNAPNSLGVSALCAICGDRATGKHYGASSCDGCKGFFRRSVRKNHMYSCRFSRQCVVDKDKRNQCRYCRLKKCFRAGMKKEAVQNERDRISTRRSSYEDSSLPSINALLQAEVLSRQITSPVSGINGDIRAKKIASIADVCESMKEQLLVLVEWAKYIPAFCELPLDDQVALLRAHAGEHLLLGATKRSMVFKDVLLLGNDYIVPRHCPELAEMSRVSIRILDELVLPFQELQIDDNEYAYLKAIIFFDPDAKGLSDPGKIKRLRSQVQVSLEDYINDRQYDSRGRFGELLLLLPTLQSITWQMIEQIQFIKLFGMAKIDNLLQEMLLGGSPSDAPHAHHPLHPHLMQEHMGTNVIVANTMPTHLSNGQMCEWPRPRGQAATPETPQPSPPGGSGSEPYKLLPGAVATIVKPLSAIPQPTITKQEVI
ALR H2O2 inh = inhibitors of human ALR sulfhydryl oxidase, primary screen, biochemical, H2O2 detection, HRP-luminol luminescence, single point. purified ALR, DTT oxidation. AID 485317, 2010. FAD-linked sulfhydryl oxidase ALR (Homo sapiens), P55789. inhibition, % (test concentration not listed). hit rate 3.8% among 290,000;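 active = mean and each replicate at 75% or more; inconclusive = only one of the two met; inactive = neither met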;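 note: stock transfer was 7.5 nL into about 7.5 µL; 0% = neutral wells and 100% = wells with inactivated enzyme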
Target sequence (P55789 whole entry, looked up): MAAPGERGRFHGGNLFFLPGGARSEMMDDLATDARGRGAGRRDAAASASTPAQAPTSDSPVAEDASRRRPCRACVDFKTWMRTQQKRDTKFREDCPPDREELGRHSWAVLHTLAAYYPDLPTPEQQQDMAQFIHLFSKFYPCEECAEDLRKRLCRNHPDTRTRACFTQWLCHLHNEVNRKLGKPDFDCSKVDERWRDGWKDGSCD
E coli growth = E. coli growth inhibition, primary screen, OD600; Escherichia coli growth, 23 h; active compounds read low; OD600 absorbance (no concentration beside the values); hit rate 0.21% among 330,000;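 active = OD600 absorbance below the run mean of sample wells minus 3.6 SD, in any replicate, cut at about 0.56 in these data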;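 note: stock transfer was 300 nL into about 60 µL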
MLL AF4-AF9 inh = inhibitors of AF4 peptide binding to AF9, primary screen, biochemical, AlphaScreen, biotin-AF4 peptide, FLAG-AF9, single point | Protein AF-9 (Homo sapiens), P42568 | AID 651704, 2012 | hit rate 0.47% among 350,000 | inhibition, % at 10 µM;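 active = every replicate reaching a set inhibition limit, whatever the replicate mean, cut at about 25% in these data; inconclusive = mean inhibition reaches that limit but some replicates miss it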;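 note: 0% = plate neutral control median and 100% = total signal loss; the record names both 10 and 1 µM as test concentration; the first replicate is given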
Ecoli rRNA inh OD600 = also measured in Ecoli rRNA inh; calls as there; OD600 change, %; measured here: OD600 growth;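 optical density of the mix in the first replicate; 0 = DMSO median and -100 = no signal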
Ecoli rRNA inh RFP = also measured in Ecoli rRNA inh; calls as there; RFP signal change, %; measured here: RFP humanized mutant strains;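 first replicate; 0 = DMSO median and -100 = no signal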
An asterisk follows results filed as active; i = inactive; ? = inconclusive; / = not tested or not shown; + = active, no number; & = joins results of further samples. An excerpt, so the mix of outcomes need not match the whole.

Values run as follows: FGF22 binding	Vif A3G	Ecoli rRNA inh	Ecoli rRNA inh OD600	Ecoli rRNA inh RFP	HNF4A DNA FP	ALR H2O2 inh	E coli growth	MLL AF4-AF9 inh
CC(=O)c1cccc(NC(=O)CC2S/C(=N/N=C/c3ccccc3)NC2=O)c1 (centres undefined)
→ /	-2%	/	/	/	0.3	-10	/	/
CCCc1nc2ccccc2c(C(=O)OCC(=O)Nc2c(C)n(C)n(-c3ccccc3)c2=O)c1CC
→ /	-4%	/	/	/	0.6	3	0.7	/
C=CCSc1nc(C)c(CC=C)c(=O)[nH]1
→ /	9%	/	/	/	4.3	-6	0.64	/
O=C(NC1CCCCC1)C1c2ccccc2C(=O)N1Cc1ccc2c(c1)OCO2 (centres undefined)
→ i	/	15	7	-4.0	4.5	0	0.71	-0.3
O=C(O)Cn1c(Cc2ccccc2)nc2ccccc21
→ i	10%	11	8	-1.7	-2.8	0	/	3.3
COc1ccccc1C#Cc1ccc2c(c1)O[C@@H](CN(C)C(C)=O)[C@@H](C)CN([C@H](C)CO)S2(=O)=O
→ i	/	0	-15	4.8	/	/	/	1.1
CCCOc1cccc(C(=O)Nc2ccc(Br)cc2F)c1
→ /	-3%	/	/	/	-0.3	-5	0.67	/
O=C(Nc1ccc(Cc2ccc(NC(=O)N3CCOCC3)cc2)cc1)N1CCOCC1
→ /	17%	/	/	/	2.0	/	0.71	/
Cc1cc(CN(C)C(=O)CC2C(=O)NCCN2Cc2ccc(F)c(F)c2)on1 (centres undefined)
→ i	/	8	0	0.7	-3.3	-6	0.74	0.3
CO[C@H]1CN(C)C(=O)c2ccc(NC(=O)C3CC3)cc2OC[C@H](C)N(C(=O)CN2CCOCC2)C[C@@H]1C
→ i	/	2	1	-3.6	/	/	/	-0.1
CCn1c(N)cc(=O)[nH]c1=S
→ i	/	9	-7	0.3	-5.2	/	/	4.1
CO[C@H]1CN(C)C(=O)c2cc(NC(C)=O)ccc2OC[C@@H](C)N(Cc2ccccn2)C[C@H]1C
→ i	/	0	1	-0.5	/	/	/	1.8
O=C(Nc1cccc(C(F)(F)F)c1)c1cccnc1NCCO
→ i	2%	-2	-6	-1.2	4.0	-7	0.68	-8.7
COc1ccc(CC(=O)n2nc(-c3ccc(Cl)cc3)nc2NCc2ccco2)cc1
→ /	-2%	/	/	/	0.5	4	0.73	/
CC(C)c1ccccc1NC(=S)N(C)C
→ i	/	14	1	-2.1	-5.6	-11	0.66	-4.8
COc1ccc(NC(=O)Cn2nc(Cc3cccnc3)c3ccccc3c2=O)cc1OC
→ i	0%	2	9	-0.9	-1.8	-30	0.72	-2.8
O=C(CC1C(=O)NCCN1C(=O)Nc1ccc(F)cc1F)Nc1ccc(F)cc1 (centres undefined)
→ i	-8%	13	7	2.4	1.1	-4	0.69	0.9
COCCNC(=O)C(Cc1c[nH]c2ccccc12)NC(=O)OCc1ccccc1 (centres undefined)
→ i	1%	0	-5	2.0	2.3	3	/	-3.3
C[C@@H]1CN([C@@H](C)CO)C(=O)CCCn2cc(nn2)CO[C@@H]1CN(C)S(=O)(=O)c1ccc(C#N)cc1
→ i	/	-1	-4	0.0	/	/	/	0.8
O=C1ON=C(c2ccccc2)/C1=C/c1ccc(-c2ccccc2[N+](=O)[O-])o1
→ /	?	/	/	/	-5.3	-4	0.69	/
CCC(=O)Nc1ccc2c(c1)C(=O)N(C)C[C@@H](OC)[C@@H](C)CN(C(=O)C1CC1)[C@H](C)CO2
→ i	/	0	5	-0.7	/	/	/	-1.2
CCc1noc(C)c1C(=O)N1CCN(S(=O)(=O)c2cccc(C(F)(F)F)c2)CC1
→ i	-5%	5	17	-1.2	-2.3	0	0.71	-7.3
CC(C)(C)NC(=O)CN(Cc1cccs1)C(=O)C1COc2ccccc2O1 (centres undefined)
→ /	2%	/	/	/	2.1	-2	0.67	/
O=C(CSC1=NS(=O)(=O)c2ccccc2N1)Nc1nccs1
→ i	-6%	6	8	-2.2	-1.3	41	0.6	12
CO[C@H]1CN(C)C(=O)c2ccc(NC(C)=O)cc2OC[C@H](C)N(CCc2ccccc2)C[C@H]1C
→ i	/	-1	-1	0.5	/	/	/	6.5
CCOc1ccc(C2C(C(=O)Nc3ccc(F)cc3)=C(C)Nc3nc(CCCO)nn32)cc1 (centres undefined)
→ i	1%	5	5	-0.6	0.5	-3	0.71	0.6
Cc1ccccc1-n1ncc(C(C)NS(=O)(=O)c2sccc2C)c1C (centres undefined)
→ i	/	-4	-2	2.3	-3.4	-6	0.75	-7.8
C[C@H]1CN([C@@H](C)CO)C(=O)c2cccc(NS(=O)(=O)c3cn(C)cn3)c2O[C@H]1CN(C)Cc1ccc(C(F)(F)F)cc1
→ i	/	-1	-5	-0.3	/	/	/	-0.7
CC1CCN(Cc2nc3c(c(=O)n(C)c(=O)n3C)n2CCc2ccccc2)CC1
→ /	/	/	/	/	-3.4	3	0.77	/
Cc1nc(NC(=S)NC(=O)c2cncc(Br)c2)ccc1Br
→ i	7%	16	12	0.9	0.9	-10	0.71	0.2
O=C(/C=C(\O)c1ccccc1)C(=O)NNC(=O)c1ccccc1
→ i	0%	-1	17	0.0	3.4	59	/	-12
COCC(=O)N(Cc1nc2ccccc2c(=O)[nH]1)Cc1cccs1
→ /	-2%	/	/	/	1.1	0	0.69	/
COc1cccc(CSc2nnc(-c3ccco3)n2C)c1
→ /	4%	/	/	/	1.6	-18	0.67	/
Cc1ccc(NC(=O)CSc2nnc(Cc3cccn3C)n2-c2ccc(F)cc2)cc1
→ /	2%&-1%	-4	-5	0.8	-0.9	16	0.75	9.1
CS(=O)(=O)N1CCN(c2nnc(-c3ccccc3)c3ccccc23)CC1
→ /	1%	/	/	/	-0.2	-3	0.71	/
O=C(Nc1c(C(=O)N2CCOCC2)cnn1-c1ccccc1Cl)c1ccco1
→ /	-2%	/	/	/	1.4	5	0.73	/
O=C(NCC(=O)N1CCCCCCC1)c1ccc(Cl)c(Cl)c1
→ i	/	-10	-4	-0.1	12	/	/	9.4
O=C(c1ccco1)N1N=C(c2cccs2)CC1c1ccco1 (centres undefined)
→ i	/	1	2	0.8	-1.2	2	0.62	0.6
COc1ccc(-c2csc(C3=C(O)CN(Cc4ccc(Cl)cc4)C3=N)n2)cc1OC
→ i	-2%	4	6	2.5	0.1	-3	0.75	-2.6
COc1ccc(C2/C(=C(/O)c3ccccc3)C(=O)C(=O)N2c2ncccn2)cc1OC (centres undefined)
→ /	1%	/	/	/	-0.2	-3	/	/
O=C(CSc1nc2ccccc2o1)N1CCN(c2ccc(Cl)cc2)CC1
→ /	9%	/	/	/	1.3	-7	0.7	/
Cc1ccc(CCC(=O)Nc2ccc(CC(=O)O)cc2)o1
→ i	/	10	4	2.7	-5.6	6	0.66	-2.6
COCCC(=O)N1CCC(Oc2ccc(C(=O)N3CCCCCC3)cc2)CC1
→ i	/	-1	7	0.1	1.3	-6	0.71	0.0
C/C=C/c1ccccc1[C@@H]1[C@@H](C#N)N(C(C)=O)[C@@H]1CO
→ +	/	2	4	1.7	/	/	/	-4.2
Cc1ccccc1CCN(CC(=O)NCc1ccc(F)cc1)C(=O)c1csnn1
→ i	9%	1	-1	-0.7	-0.6	4	0.7	-3.0
COc1ccc(-c2ccc([C@H]3[C@@H](C#N)N(C(=O)C4CC4)[C@@H]3CO)cc2)cc1
→ i	/	-3	-9	-2.2	/	/	/	-0.6
CSc1nsc(SCC(=O)Nc2ccc(Br)cn2)n1
→ /	-2%	/	/	/	-2.4	/	0.75	/
Cc1ccc(C)c(CNS(=O)(=O)c2c(C(=O)N3CCCC3)c(C)n(C)c2C)c1
→ i	7%	2	6	-1.4	-2.7	-4	0.68	1.4
CCOc1ccc(S(=O)(=O)NC(C)(C)C)cc1-c1nc2c(C(C)(C)C)nn(C)c2c(=O)[nH]1
→ i	13%	-4	9	6.0	-4.3	-4	0.71	-4.1
O=C(Nc1ccccc1)c1ccccc1OS(=O)(=O)c1ccccc1
→ i	/	3	-7	-2.6	-2.4	-4	0.65	-6.1

Next part:
Values run as follows: FGF22 binding	Vif A3G	Ecoli rRNA inh	Ecoli rRNA inh OD600	Ecoli rRNA inh RFP	HNF4A DNA FP	ALR H2O2 inh	E coli growth	MLL AF4-AF9 inh
COC(=O)c1nnn(-c2nonc2N)c1CN1CCCC1
→ i	4%	11	16	-1.0	0.0	/	0.69	-1.0
C[C@@H]1CN([C@H](C)CO)C(=O)c2cc(NC(=O)c3ccncc3)ccc2O[C@@H](C)CCCCO[C@@H]1CN(C)S(=O)(=O)c1cccs1
→ i	/	-3	-1	2.1	/	/	/	-0.7
C[C@H](CO)N1C[C@H](C)[C@H](CN(C)C(=O)Nc2cccc3ccccc23)Oc2ccc(NS(=O)(=O)c3cccs3)cc2C1=O
→ i	/	-4	-11	3.9	/	/	/	-0.4
COc1ccc(N2C(=O)CC(NCc3ccncc3)C2=O)cc1 (centres undefined)
→ /	2%	/	/	/	-0.8	-3	0.74	/
O=C(Nc1ccc(F)cc1)C(c1ccncc1)N1CCN(c2cccc(C(F)(F)F)n2)CC1 (centres undefined)
→ i	/	-5	-18	2.4	-3.7	/	/	/
O=C(/C=C/c1cccs1)N1CCN(Cc2ccc3c(c2)OCO3)CC1
→ i	/	-3	-5	-2.6	5.6	-6	0.7	0.3
CC[C@H](C)C(N)c1cn([C@@H](CC(N)=O)C(=O)N2CCNCC2)nn1 (some centres undefined)
→ i	/	3	8	-5.1	-2.1	-9	/	-1.8
O=C(COC(=O)/C=C/c1ccccc1Cl)NCCNC(=O)COC(=O)/C=C/c1ccccc1Cl
→ i	/	3	10	0.0	2.4	-1	0.71	-2.3
Cc1cccc(C)c1Nc1n[nH]c(=S)s1
→ i	0%	-7	-11	-5.6	4.2	/	/	-0.4
Cc1ccccc1-c1cnc2c(c1)C(=O)N([C@H](C)CO)C[C@H](C)[C@@H](CN(C)C(=O)c1cccnc1)O2
→ i	/	-2	3	-1.5	/	/	/	-2.3
O=C1C=CC2(O[C@H](c3ccccc3)[C@@H](c3ccccc3)O2)[C@H](Sc2ccccc2O)C1
→ i	/	-12	3	5.1	-4.9	/	/	-1.7
CCS(=O)(=O)N1Cc2ccccc2CC1C(=O)Nc1cccc(S(=O)(=O)N(C)C)c1 (centres undefined)
→ i	-8%	0	6	1.5	-2.1	1	0.68	0.2
Cc1cc(N2CCN(C3CCCCC3)CC2)nc2cccc(O)c12
→ i	20%	/	/	/	-1.0	/	0.68	7.8
Cc1cc(C)n(CC(=O)O)n1
→ /	0%	/	/	/	3.0	-7	0.68	/
COC(=O)[C@H](CCSC)NC(=O)c1cc2c(cn1)[nH]c1ccccc12
→ i	3%	-3	10	1.6	-0.5	/	0.67	-0.5
Cc1cccc(NC(=O)CSCC(=O)N2CCCc3ccccc32)c1
→ i	-1%	-1	3	-1.5	1.8	/	0.63	-25

Assay outcomes from PubChem BioAssay.
